HSD17B inhib – inhibitors of human HSD17B10 dehydrogenase. 75,000 tested, 7.6% active. Potency, µM (titrated, usually from 57.1 µM), for inactives: at the highest dose activity change, negative = inhibition, usual class: inhibitors. AID 893. recombinant HSD17B10, NADH fluorescence kinetic; many of its hits are not listed in these tables; active means well fitted inhibition curve with a large enough effect; inconclusive means small, poorly fitted or top-dose-only effect; inactive means no such curve, though single readings can be large or run the other way;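 further: the protocol describes HADH2 (HSD17B10) and not the HSD17B4 of the title; nearly all actives have a fitted effect of over 70% in size; most hits overshoot -100% by far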
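Activity followed as NADH fluorescence increase (ex 360, em 450 nm) every 30 seconds for 4 min, using final 90 uM beta-hydroxybutyryl CoA and 1 mM NAD+. Recombinant His-tagged enzyme, 20 nM, pH 9.0 Tris buffer, 15 min compound preincubation.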
Active calls of the source: *; [ ] = another dose, or the depositor's remark. On the % scale 0 is the no-effect control and ±100 the full control effect; potency means the concentration at half of the fitted maximal effect. An excerpt (hit frequency here may not be typical).

`CC(=O)CCc1c(C)[nH]c2ccc(NC(C)=O)cc2c1=O` gave HSD17B inhib 32µM*.
For CC(=O)c1cnc(Nc2nc(C)c3ccc(C)cc3n2)nc1C the results were HSD17B inhib 0%.
`CCN(CC)C(=O)Oc1ccccc1NC(C)=O` gave HSD17B inhib 8%.
Screening CCCn1c(C)nc2c(N3CCC(N(C)C)C3)nc(C)nc21 (centres undefined) returned HSD17B inhib 0%.
O=C(CSc1nnc(-c2c[nH]c3ccccc23)o1)N1CCCCC1 was read as HSD17B inhib -9%.
For Cc1ccc(C2N(c3ccc(F)cc3)C(=O)C3CCCN32)cc1 (centres undefined) the results were HSD17B inhib 4%.
Fc1ccccc1N1CCN(CCCNc2ccc3nncn3n2)CC1 was read as HSD17B inhib 6%.
`CN1C(=O)NC(NC(=O)C2CCCCC2)(C(F)(F)F)C1=O` (centres undefined) gave HSD17B inhib 0%.
Cc1csc(NC(=O)C2CCCN(S(=O)(=O)c3cnc[nH]3)C2)n1 (centres undefined) was read as HSD17B inhib 5%.
CC(C)C(NC(=O)CNC(=O)OC(C)(C)C)C(=O)NCc1ccccc1 (centres undefined) was read as HSD17B inhib 3%.
O=C(Nc1ccccc1Cl)N1CCN(c2ccc3nnc(-c4ccc(F)cc4)n3n2)CC1 was read as HSD17B inhib inconclusive.
`CCN(CC)S(=O)(=O)c1ccc(C(=O)N2CCN=C2SC)cc1` gave HSD17B inhib 3%.
For CC(NC(=O)c1cccs1)c1ccc2c(c1)OCO2 (centres undefined) the results were HSD17B inhib 8%.
For CCCn1c(-c2ccc(F)cc2)nc2c(NCC(C)(C)CN(C)C)nc(C)nc21 the results were HSD17B inhib 25µM*.
`CCC(=O)Nc1cc(C(=O)NCC2CCCN2CC)c(OC)cc1N(C)C` (centres undefined) gave HSD17B inhib 3%.
For O=c1c2ccccc2c(C=Nc2ccc(Cl)cn2)c(O)n1-c1cc(Cl)ccc1N1CCOCC1 the results were HSD17B inhib 4%.
`Cc1ccc(NC(=O)c2ccco2)cc1NC(=O)CSc1nnc(-c2cccs2)n1C` gave HSD17B inhib -2%.
`c1ccc(-c2cc3c(-n4cccc4)ncnc3o2)cc1` gave HSD17B inhib 32µM*.
`CCc1c(C)sc(NC(=O)c2cc(C)on2)c1C#N` gave HSD17B inhib -10%.
O=C(/C=C/N1CCOCC1)c1coc2ccccc12 was read as HSD17B inhib inconclusive.
CC(C)COC(=O)Cc1c(O)c2ccccc2[nH]c1=O was read as HSD17B inhib 32µM*.
For CCc1nnc(NC(=O)CSc2nnc(Cc3ccc(OC)cc3)o2)s1 the results were HSD17B inhib 5%.
Cn1c(SCC(=O)N2CCOCC2)nnc1-c1cccc(NC(=O)c2ccccc2)c1 was read as HSD17B inhib 5%.
Screening Nc1nc2ccccc2[nH]1 returned HSD17B inhib 0%.
`O=C(O)[C@@H](Cc1c[nH]c2ccccc12)C(=O)NO` gave HSD17B inhib -2%[11.4 µM].
`COc1ccc(S(=O)(=O)NCCSCc2cccs2)cc1` gave HSD17B inhib inconclusive.
Screening C=CCN(C(=O)Cn1c(C(=O)OC)cc2oc(C)cc21)c1ccccc1 returned HSD17B inhib -21%.
`O=C(O)CC(Cn1cnnn1)c1ccccc1` (centres undefined) gave HSD17B inhib 6%.
Screening CCN1CCCC1CNC(=O)c1ccc(Cc2nc3ccccc3[nH]2)cc1 (centres undefined) returned HSD17B inhib -1%.
Cc1ccc(-n2c(SCC(=O)NC3CCCCC3)nc3c(c2=O)SCC3)cc1 was read as HSD17B inhib 7%.
For O=C(c1ccc2nc(N3CCCCC3)sc2c1)N1CCN(Cc2ccc3c(c2)OCO3)CC1 the results were HSD17B inhib 0%.
COc1ccc(C(=O)NCc2cn3cccc(C)c3n2)cc1OC was read as HSD17B inhib 12%.
For CCC(C)NS(=O)(=O)c1ccc(OCC(=O)NCc2ccc3c(c2)OCO3)cc1 (centres undefined) the results were HSD17B inhib 2%.
`CCOC(=O)N1CCN(C2CC(=O)N(c3ccc(F)cc3)C2=O)CC1` (centres undefined) gave HSD17B inhib 1%.
For Cc1ccc2[nH]c(=O)c(CN(CCc3ccccc3)C(c3nnnn3Cc3ccco3)C(C)C)cc2c1 (centres undefined) the results were HSD17B inhib inconclusive.
`CCOc1cc(C(=O)NC)cc(OCC)c1OCC` gave HSD17B inhib 4%.
For CC(=O)c1cccc(S(=O)(=O)N2CCC(n3nnc4cc(F)ccc43)CC2)c1 the results were HSD17B inhib 0%.
Screening O=C(CSc1ncnc2c1oc1ccccc12)NCc1ccco1 returned HSD17B inhib 7%.
`COc1ccc(-n2nnnc2SCC(N)=O)cc1` gave HSD17B inhib 14%.
Cc1ccc(-n2nc(C)c3cc(C(=O)O)sc32)cc1 was read as HSD17B inhib 17%.
Screening Cc1ccc(-c2ccc(=O)n(CC(=O)N3CCN(c4cccc(C)c4)C(C)C3)n2)cc1 (centres undefined) returned HSD17B inhib 0%.
For O=C(O)CC(C(=O)O)c1cn(Cc2ccccc2)c2ccccc12 (centres undefined) the results were HSD17B inhib inconclusive.
Screening Cc1noc(/C=C/N(C)C)c1S(=O)(=O)N1CCCC(C(=O)NC(C)c2ccccc2)C1 (centres undefined) returned HSD17B inhib -19%.
C=CCc1cc(/C=N/n2cnnc2)cc(OCC)c1O was read as HSD17B inhib -9%.
CCOC(=O)c1cnc(Nc2nc3ccccc3o2)nc1CSc1nnc(C)s1 was read as HSD17B inhib 6%.
Cc1cc(C)nc(SCCC(=O)N2CCOCC2)n1 was read as HSD17B inhib -10%.
For CCCCCOc1ccc(N2C(=O)CC(N(O)c3ccccc3)C2=O)cc1 (centres undefined) the results were HSD17B inhib -17%.
Screening CCOC(=O)C(C)Oc1cccc2c(=O)n(CC(=O)N3CCN(C(=O)OCC)CC3)ccc12 (centres undefined) returned HSD17B inhib -6%.
N[C@@]1(C(=O)O)CN[C@H](C(=O)O)C1 was read as HSD17B inhib 4%.
Screening CN1CCN(c2cc(-c3ccoc3)ncn2)CC1 returned HSD17B inhib -11%.
`CCN(C(=O)c1cc2cc(OC)ccc2oc1=O)c1ccccc1` gave HSD17B inhib -12%.
`Cn1c(C(=O)OC(C(=O)NC2CCCC2)c2cccnc2)cc2sccc21` (centres undefined) gave HSD17B inhib -4%.
`COc1ccc(N2CCN(c3ccc(NC(=O)C4CCCCC4)cc3C#N)CC2)cc1` gave HSD17B inhib inconclusive.
Screening Cc1cc(C)n(-c2nc3nonc3nc2-n2nc(C)cc2C)n1 returned HSD17B inhib -6%.
Screening COc1ccc(N(CC(=O)NCc2ccccc2OC)S(=O)(=O)c2c(C)nn(C)c2C)cc1 returned HSD17B inhib 6%.
O=C(O)CSc1nc2ccccc2o1 was read as HSD17B inhib 7%.
`Cc1cc(=O)n2nc(N3CCC(C(=O)N4CCN(C)CC4)CC3)sc2n1` gave HSD17B inhib 3%.
Screening CC(NC(=O)c1cccs1)C(c1cccs1)N1CCN(Cc2ccccc2)CC1 (centres undefined) returned HSD17B inhib -13%.
For C=CCn1c(SCC(=O)NCc2ccco2)nc2sc3c(c2c1=O)CCCCC3 the results were HSD17B inhib -13%.
Screening CCC1=C2CC[C@H]3C(=O)N(CC)C(=O)[C@H]3[C@H]2[C@@]2(C)C(=NCCc3c[nH]c4ccccc34)OC(=O)N2C1=O returned HSD17B inhib 2%.

Of the compounds above, these have a furan ring, fused or not.
`Cc1ccc(NC(=O)c2ccco2)cc1NC(=O)CSc1nnc(-c2cccs2)n1C` gave HSD17B inhib -2%.
`c1ccc(-c2cc3c(-n4cccc4)ncnc3o2)cc1` gave HSD17B inhib 32µM*.
O=C(/C=C/N1CCOCC1)c1coc2ccccc12 was read as HSD17B inhib inconclusive.
Screening C=CCN(C(=O)Cn1c(C(=O)OC)cc2oc(C)cc21)c1ccccc1 returned HSD17B inhib -21%.
For Cc1ccc2[nH]c(=O)c(CN(CCc3ccccc3)C(c3nnnn3Cc3ccco3)C(C)C)cc2c1 (centres undefined) the results were HSD17B inhib inconclusive.
Screening O=C(CSc1ncnc2c1oc1ccccc12)NCc1ccco1 returned HSD17B inhib 7%.
Screening CN1CCN(c2cc(-c3ccoc3)ncn2)CC1 returned HSD17B inhib -11%.
For C=CCn1c(SCC(=O)NCc2ccco2)nc2sc3c(c2c1=O)CCCCC3 the results were HSD17B inhib -13%.

Pulled by compound from above (five):
`COc1ccc(N2CCN(c3ccc(NC(=O)C4CCCCC4)cc3C#N)CC2)cc1` gave HSD17B inhib inconclusive.
Screening COc1ccc(N(CC(=O)NCc2ccccc2OC)S(=O)(=O)c2c(C)nn(C)c2C)cc1 returned HSD17B inhib 6%.
O=C(O)CSc1nc2ccccc2o1 was read as HSD17B inhib 7%.
For C=CCn1c(SCC(=O)NCc2ccco2)nc2sc3c(c2c1=O)CCCCC3 the results were HSD17B inhib -13%.
Screening CC(NC(=O)c1cccs1)C(c1cccs1)N1CCN(Cc2ccccc2)CC1 (centres undefined) returned HSD17B inhib -13%.

Additional compounds follow.
For COC(=O)C1=C(CN2CCc3ccccc32)NC(=O)NC1c1cc(C)ccc1C (centres undefined) the results were HSD17B inhib -13%.
Cn1c(=O)c(-c2ccc(Cl)cc2)nc2cnc(Oc3ccccc3)nc21 was read as HSD17B inhib 25µM*.
`COC(=O)C1=C(C)N(C)C(=O)NC1c1cc(Cl)cc(Cl)c1OC` (centres undefined) gave HSD17B inhib 3%.
`CCCCOC(=O)N1CCOCCOCCN(C(=O)OCCCC)CCOCCOCC1` gave HSD17B inhib -3%.
c1cncc(CSc2nnc(-c3cccnc3)n2Cc2ccco2)c1 was read as HSD17B inhib inconclusive.
Screening c1ccc(-c2cnnc(SCc3cn4cccnc4n3)n2)cc1 returned HSD17B inhib -9%.
Screening COc1ccc(NC(=O)N2CC3(CCN(C(=O)c4cc(C(F)(F)F)cc(C(F)(F)F)c4)CC3)C2)cc1 returned HSD17B inhib -7%.
N#CCCn1c(=O)c(CCc2ccccc2)nc2cnc(Oc3ccccc3)nc21 was read as HSD17B inhib 5%.
Screening O=C1C(Cl)=C(NCCCN2CCOCC2)C(=O)N1CCc1ccccc1 returned HSD17B inhib 14%.
CCN(CC)c1ccc(/C=N/n2c(C)cc(C)cc2=O)cc1 was read as HSD17B inhib inconclusive.
CCc1ccc2nc(NC(=O)c3ccc4c(=O)[nH]c(CN5CCOCC5)nc4c3)sc2c1 was read as HSD17B inhib inconclusive.
For Cc1ccc(S(=O)(=O)Cn2nnnc2C(c2ccc(F)cc2)N2CCCCC2)cc1 (centres undefined) the results were HSD17B inhib 9%.
O=C(OCC#CCSc1nnc(-c2ccc(Br)cc2)o1)c1ccco1 was read as HSD17B inhib -10%.
CCOC(=O)c1ccccc1NC(=O)CC(C)CC(=O)O (centres undefined) was read as HSD17B inhib inconclusive.
Screening Cn1cccc1Cc1nnc(SCC(=O)Nc2ccc3c(c2)OCO3)n1-c1ccc(F)cc1 returned HSD17B inhib -2%.
COc1ccc(N(CC(=O)N2CCCCC2)S(=O)(=O)c2ccccc2)c(OC)c1 was read as HSD17B inhib 14%.
`O=C(Oc1ccccc1)N1CCC2(CC1)CCN(c1ccccc1)CC2` gave HSD17B inhib -15%.
COc1cccc(-c2cc(NCc3ccccc3)ncn2)c1 was read as HSD17B inhib 32µM*.
`CC(C)N(Cc1nc(-c2ccccc2)no1)C(=O)COc1ccccc1` gave HSD17B inhib -4%.
Screening CC(C)c1ccc(-c2nc(N3CCOCC3)[nH]c(=O)c2C#N)cc1 returned HSD17B inhib 11%.
Cc1[nH]c2ccc(-c3n[nH]c(=S)n3C)cc2c1C was read as HSD17B inhib inconclusive.
For NC(=O)CN1CCOCCN(CC(N)=O)CCOCC1 the results were HSD17B inhib -1%.
NS(=O)(=O)c1ccc(NC(=O)CSc2ccccn2)cc1 was read as HSD17B inhib -6%.
`Cc1ccc(S(=O)(=O)N2CCN(CCO)CC2)cc1-c1nnc2c3ccccc3c(C)nn12` gave HSD17B inhib -6%.
For O=C(NC1CC2CCCC(C1)N2C(=O)NCc1ccccc1)C1CC1 (centres undefined) the results were HSD17B inhib 12%.
`Cc1onc(-c2ccccc2Cl)c1C(=O)Nc1cnn(Cc2ccccc2)c1` gave HSD17B inhib -2%.
COC(=O)c1c(-c2ccc(C)cc2)csc1N was read as HSD17B inhib -9%.
For COC(=O)NC(/C(C(=O)OC)=C(\C)NCc1ccccc1)c1ccc(Cl)cc1 (centres undefined) the results were HSD17B inhib 0%[11.4 µM].
`Cc1cc2oc3c(c(=O)c2cc1C)C(c1ccc(C(C)C)cc1)N(CCCN1CCOCC1)C3=O` (centres undefined) gave HSD17B inhib -13%.
Screening CCOc1ccc(C2C(=O)N(C3CCCCC3)CC(=O)N2CC2CCCO2)cc1OC (centres undefined) returned HSD17B inhib 0%.
`Cc1ccc(C(C)n2cc(C(=O)NCCN3CCN(C)CC3)nn2)cc1` (centres undefined) gave HSD17B inhib 2%.
For CCOC(=O)c1cnc(SCC(=O)c2ccc3c(c2)OCCO3)nc1N the results were HSD17B inhib -9%.
Screening COc1ccc2c(CC(=O)OCC(=O)c3ccc(F)cc3)coc2c1 returned HSD17B inhib -5%.
COCCNc1ccnc(-c2ccccc2C(F)(F)F)n1 was read as HSD17B inhib 10%.
For C=CCSc1nc2c(c(=O)[nH]c(=O)n2C)n1CC the results were HSD17B inhib -8%.
For Cc1c(NC(=O)c2ccc3c(c2)OCO3)cccc1-c1nc2ccccc2o1 the results were HSD17B inhib -28%.
Screening CCCNC(=O)CS(=O)Cc1nc(-c2cccc(OC)c2)oc1C (centres undefined) returned HSD17B inhib -21%.
For CC(C)(C)CC(C)(C)c1cc(O)c(O)c(CN2CCCCC2)c1 the results were HSD17B inhib inconclusive.
Screening CSCCC(N)C(=O)NC(CC(C)C)C(=O)NC(Cc1ccccc1)C(=O)O (centres undefined) returned HSD17B inhib 7%.
Screening CCC(C)(C)NC(=O)C(c1ccco1)N(C(=O)Cn1nnc2ccccc21)c1ccc2c(c1)OCO2 (centres undefined) returned HSD17B inhib 3%.
